Compound activity deposited in PubChem BioAssay by Broad Institute.
DUX4 txn inh = DUX4-mediated transcription inhibition; 293T-iDUX4 ZSCAN4-Gaussia luciferase reporter, 24 h; stronger effect = lower value; actives 0.8% (n = 37,000); activity change, negative = inhibition, % (concentration not given with the values); AID 1224904;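 active = -10% or lower and over 25 points stronger than a control reporter; inconclusive = -10% or lower with a smaller gap; inactive = above -10%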;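 also: 0% = median of neutral control wells and -100% = median of positive control wells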
DUX4 txn inh difference = further read-out of DUX4 txn inh, marked with its call; Gaussia minus Italica difference, %; measured here: selective DUX4 reporter inhibition;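 worked out from the two reporters; negative = selective loss of the DUX4 reporter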
DUX4 txn inh control = also measured in DUX4 txn inh; calls as there; activity change, negative = inhibition, %; measured here: Italica tet-on control reporter;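 0 = neutral control and -100 = positive control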
An asterisk follows results filed as active; ? = inconclusive; · = not tested or not shown; & = joins results of further samples. Not all compounds are listed. The share of hits here may be higher or lower than overall.

structure	DUX4 txn inh	DUX4 txn inh difference	DUX4 txn inh control
COc1ccc2c3c(n(C)c2c1)[C@@H](CO)N(C(=O)Nc1ccc(F)cc1)CC31CCN(C(=O)c2ccc3c(c2)OCO3)CC1	?	·	·
COc1cccc(S(=O)(=O)N[C@H]2C=C[C@H](CC(=O)NCc3ccncc3)O[C@@H]2CO)c1	-5	-1	-4.0
CC(=O)NC[C@H]1[C@@H](c2ccc(-c3ccccc3)cc2)[C@@H](CO)N1C(=O)C1CCC1	-4	-8	3.5
COc1ccc(S(=O)(=O)N(C)C[C@H]2Oc3ccc(NC(=O)CCCCCC(=O)Nc4ccccc4N)cc3C(=O)N([C@H](C)CO)C[C@H]2C)cc1	6	1	4.7
CN1C(=O)c2cc(NS(C)(=O)=O)ccc2OC[C@@H]2O[C@@H](CC(=O)N3CCOCC3)CC[C@H]21	-1	-1	-0.1
N#C[C@H]1[C@@H](c2ccc(C3=CCCC3)cc2)[C@@H](CO)N1C(=O)C1CCC1	-2	-3	1.8
O=C(C[C@@H]1C[C@@H]2c3cc(NC(=O)Cc4ccncc4)ccc3O[C@@H]2[C@H](CO)O1)NCC1CC1	8	-3	11
C[C@@H]1CN([C@H](C)CO)C(=O)CCCn2nncc2CO[C@@H]1CN(C)C(=O)c1ccncc1	1	-3	4.1
CCC(=O)N1CCC2(CC1)CN(Cc1ccccn1)[C@H](CO)c1[nH]c3cc(OC)ccc3c12	4	-9	13
CCC(=O)NC[C@@H]1[C@@H](c2ccc(C3=CCCC3)cc2)[C@H](CO)N1C(=O)C1CC1	-3	-5	2.3
CO[C@@H]1CN(C)C(=O)c2cc(NC(=O)Nc3c(C)noc3C)ccc2OC[C@@H](C)NC[C@H]1C	5	9	-4.1
C[C@H]1CC(=O)N[C@H](c2ccccc2)C/C=C\C[C@@H](c2ccc3c(c2)OCO3)NC1=O	-1	0	-1.6
CC(C)c1cccc(NC(=O)C[C@H]2CC[C@H]3[C@@H](COc4ccc(NS(=O)(=O)c5ccccc5Cl)cc4C(=O)N3C)O2)c1	3	1	1.9
C/C=C/c1ccc([C@@H]2[C@@H](CO)N(C(=O)C3CCCCC3)C23CN(C(=O)NC(C)C)C3)cc1	-2	-6	4.1
COc1cccc(C#Cc2cnc3c(c2)C(=O)N([C@H](C)CO)C[C@@H](C)[C@H](CN(C)C(=O)C2CCCCC2)O3)c1	-4	-4	-0.7
O=C(C[C@H]1CC[C@H]2[C@@H](COC[C@H](O)CN2Cc2ccc(C(F)(F)F)cc2)O1)N1CCc2ccccc2C1	?	·	·
CCCC(=O)N1CC2(CCN(C)CC2)c2c(n(C)c3cc(OC)ccc23)[C@H]1CO	14	-4	18
O=C1C[C@H](c2ccccc2)C(=O)N[C@@H](c2ccc(F)cc2)C/C=C\CCN1	0	-1	1.4
C[C@H](CO)N1C[C@H](C)[C@H](CN(C)CC2CCCCC2)Oc2c(NC(=O)Nc3ccc(F)cc3)cccc2C1=O	1	2	-0.7
C[C@@H](NC(=O)[C@@H]1[C@@H](CO)[C@@H]2Cn3c(cccc3=O)[C@H]1N2Cc1ccncc1)c1ccccc1	-1	-6	5.4
COc1ccc2c3c(n(C)c2c1)[C@@H](CO)N(Cc1nccs1)CC31CN(C)C1	25	1	25
CNC[C@H]1OCCCC[C@H](C)Oc2ccc(NC(=O)CCC(F)(F)F)cc2C(=O)N([C@@H](C)CO)C[C@H]1C	-5	-2	-2.9
C[C@H]1CN([C@@H](C)CO)C(=O)Cc2cc(NS(C)(=O)=O)ccc2O[C@@H]1CN(C)Cc1ccc(C(F)(F)F)cc1	-2	-4	2.0
O=C(Cc1ccccn1)N1CC(=O)N2[C@@H](CO)[C@@H](c3ccc(C#CC4CC4)cc3)[C@@H]2C1	-2	-3	1.3
COc1ccc(C[C@H]2CCn3cc(nn3)COCCNC2=O)cc1	3	-1	4.5
COc1ccc2c3c(n(C)c2c1)[C@@H](CO)N(S(=O)(=O)c1ccc(C)cc1)CC31CCN(C)CC1	17	-14	31
CCNC(=O)C[C@@H]1CC[C@H]2[C@@H](COc3ccc(NC(=O)c4ccc(F)c(F)c4)cc3C(=O)N2C)O1	-3	-2	-0.8
O=C(CC1CC1)N1CC(=O)N2[C@@H](CO)[C@@H](c3ccc(C#Cc4ccc(F)cc4)cc3)[C@@H]2C1	-8	-2	-5.9
CCNC(=O)[C@H]1[C@H](CO)[C@H]2Cn3c(ccc(C4=CCCCC4)c3=O)[C@@H]1N2CCC(F)(F)F	4	-4	8.4
CN1C(=O)c2cc(NC(=O)c3ccc(F)cc3)ccc2OC[C@H]2O[C@@H](CC(=O)N3CCOCC3)CC[C@@H]21	2	3	-0.8

Arranged by the number under DUX4 txn inh difference (largest number first): five of the compounds above
structure	DUX4 txn inh	DUX4 txn inh difference	DUX4 txn inh control
CN1C(=O)c2cc(NC(=O)c3ccc(F)cc3)ccc2OC[C@H]2O[C@@H](CC(=O)N3CCOCC3)CC[C@@H]21	2	3	-0.8
O=C1C[C@H](c2ccccc2)C(=O)N[C@@H](c2ccc(F)cc2)C/C=C\CCN1	0	-1	1.4
CNC[C@H]1OCCCC[C@H](C)Oc2ccc(NC(=O)CCC(F)(F)F)cc2C(=O)N([C@@H](C)CO)C[C@H]1C	-5	-2	-2.9
C[C@@H](NC(=O)[C@@H]1[C@@H](CO)[C@@H]2Cn3c(cccc3=O)[C@H]1N2Cc1ccncc1)c1ccccc1	-1	-6	5.4
COc1ccc2c3c(n(C)c2c1)[C@@H](CO)N(S(=O)(=O)c1ccc(C)cc1)CC31CCN(C)CC1	17	-14	31

Remaining list, next part:
structure	DUX4 txn inh	DUX4 txn inh difference	DUX4 txn inh control
N#C[C@@H]1[C@H](c2ccc(C#CC3CCCC3)cc2)[C@@H](CO)N1C(=O)Cc1ccccn1	0	-5	5.2
CS(=O)(=O)Nc1ccc2c(c1)[C@@H]1C[C@@H](CC(=O)NCc3cc(F)ccc3F)O[C@H](CO)[C@@H]1O2	5	1	4.9
Cc1cccc(S(=O)(=O)N2CCCCN3[C@H](CO)[C@@H](c4ccc(C#C[C@@H](C)O)cc4)[C@H]3C2)c1	12	12	-0.1
Cc1ccc(S(=O)(=O)N2CC[C@@H]3[C@H]2c2cc(C#Cc4ccccc4F)ccc2N[C@@H]3CO)cc1	4	9	-5.6
CCC(=O)N(C)C[C@@H]1[C@@H](c2ccc(-c3ccccc3F)cc2)[C@H](CO)N1C(C)=O	3	-2	5.4
CCCNC(=O)N1CC2(CN(C)C2)c2c(n(C)c3cc(OC)ccc23)[C@@H]1CO	10	11	-0.9
CCC(=O)N1[C@@H]2Cn3c(ccc(-c4ccccc4)c3=O)[C@H]1[C@@H](C(=O)N1CCN(C)CC1)[C@@H]2CO	-2	-3	1.0
O=S(=O)(c1ccccc1)N1C[C@H]2[C@@H](c3ccccc31)[C@@H](CO)N2Cc1ccccc1	0	-4	4.2
COc1ccc(-c2ccc3n(c2=O)C[C@H]2[C@H](CO)[C@@H](C(=O)N4CCCCC4)[C@@H]3N2C)cc1	?	·	·
C[C@@H]1CCCCO[C@H](CN(C)Cc2ccc(C(F)(F)F)cc2)[C@@H](C)CN([C@@H](C)CO)C(=O)c2cc(NC(=O)c3ccccc3)ccc2O1	-2	-2	0.0
COc1ccc2c3c(n(C)c2c1)[C@H](CO)N(C(=O)NC(C)C)CC31CCN(CC2CCCCC2)CC1	-3	-3	0.0
CC(=O)N1[C@@H]2c3ccc(-c4ccc(F)cc4)c(=O)n3C[C@H]1[C@H](CO)[C@H]2C(=O)N(C)C	0	0	0.2
COCC(=O)Nc1ccc2c(c1)[C@H]1C[C@H](CC(=O)NCc3cccnc3)O[C@@H](CO)[C@H]1O2	-5	-3	-2.3
CCC(=O)N1C[C@@H](C)[C@@H](OC)CN(C)C(=O)c2ccc(NC(=O)CC(F)(F)F)cc2OC[C@H]1C	14	9	5.3
COCC(=O)N1CC(=O)N2[C@H](CO)[C@H](c3ccc(-c4cccnc4)cc3)[C@@H]2C1	13	0	13

(cont.)
SMILES | DUX4 txn inh | DUX4 txn inh difference | DUX4 txn inh control
COc1ccccc1S(=O)(=O)N(C)C[C@@H]1OCc2cn(nn2)CCCC(=O)N([C@H](C)CO)C[C@@H]1C | 2 | -4 | 6.5
CCN(C[C@H]1N[C@H](CO)[C@@H]1c1ccc(C2=CCCC2)cc1)C(=O)c1ccncc1 | 1 | 0 | 1.3
O=C(c1ccccc1F)N1C[C@@H]2[C@H](c3ccccc31)[C@@H](CO)N2C(=O)c1cccnc1 | -2 | -3 | 1.4
COc1ccc2c3c(n(C)c2c1)[C@@H](CO)N(CC1CCCC1)CC31CN(C(=O)Nc2ccccc2)C1 | 7 | 10 | -3.5
C[C@H](CO)N1C[C@H](C)[C@H](CN(C)C(=O)C2CC2)Oc2cc(-c3ccccc3F)ccc2S1(=O)=O | -7 | -4 | -2.1
N#C[C@H]1[C@H](c2ccccc2-c2ccccc2F)[C@H](CO)N1C(=O)Cc1ccccc1 | -9 | -2 | -7.1
COc1ccc2c3c([nH]c2c1)[C@@H](CO)N(Cc1cc(F)ccc1F)CC31CCN(C(=O)CN(C)C)CC1 | ? | · | ·
Cc1ccccc1S(=O)(=O)Nc1ccc2c(c1)C(=O)N(C)[C@@H]1CC[C@H](CC(=O)O)O[C@@H]1CO2 | 1 | 0 | 1.3
CCCNC(=O)N1CC2(C1)CN(C(=O)NC(C)C)[C@H](CO)c1c2c2ccc(OC)cc2n1C | 9 | 5 | 4.3
C[C@H]1CN([C@@H](C)CO)C(=O)c2c(c3ccccc3n2C)-c2ccccc2CO[C@H]1CN(C)S(=O)(=O)c1ccc(C(F)(F)F)cc1 | ? | · | ·
COc1ccc(S(=O)(=O)N(C)C[C@@H]2Oc3c(cccc3N(C)C)C(=O)N([C@@H](C)CO)C[C@H]2C)cc1 | -2 | -1 | -1.6
CN(C)C(=O)c1ccc(-c2ccc([C@@H]3[C@@H](CO)N4CCCCN(C(=O)C5CC5)C[C@@H]34)cc2)cc1 | 14 | 16 | -1.9
COc1cc(CN2[C@@H]3CNC[C@H]2C3c2ccc(-c3ccccc3)cc2)cc(OC)c1 (some centres not stated) | 5&3 | -7&15 | 12&-11
COC(=O)[C@H]1[C@H](CO)[C@H]2Cn3c(ccc(-c4ccccc4)c3=O)[C@H]2N1C(=O)C1CC1 | 7 | 5 | 2.1
COc1ccccc1NC(=O)N(C)C[C@@H]1OCc2cnnn2CCCC(=O)N([C@H](C)CO)C[C@H]1C | 8 | 7 | 0.9
COc1ccc2c3c([nH]c2c1)[C@@H](CO)N(C(=O)NC1CCCC1)CC31CN(C(=O)Nc2cccc(F)c2)C1 | 5 | 4 | 1.0
C[C@@H](NC(=O)[C@@H]1N[C@@H]2c3ccc(C4=CCCCC4)c(=O)n3C[C@@H]2[C@H]1CO)c1ccccc1 | 4 | 3 | 1.0
CN(C[C@H]1N[C@@H](CO)[C@H]1c1ccc(C2=CCCC2)cc1)S(C)(=O)=O | -2 | 1 | -2.8
CC(C)NC(=O)Nc1ccc2c(c1)C(=O)N(C)[C@H]1CC[C@@H](CC(=O)NCc3ccc(F)cc3)O[C@H]1CO2 | 4 | 3 | 1.2
COc1ccc(C#Cc2ccc3c(c2)O[C@@H](CN(C)C(=O)NC2CCCCC2)[C@H](C)CN([C@H](C)CO)S3(=O)=O)cc1 | 4 | 1 | 3.1
COc1cccc(NC(=O)N2C[C@H](O)COC[C@@H]3O[C@H](CC(=O)NC4Cc5ccccc5C4)CC[C@H]32)c1 | -10 | -10 | -0.2
CC(C)NC(=O)NCC[C@@H]1CC[C@H](NC(=O)c2ccc(F)cc2)[C@H](CO)O1 | 0 | -2 | 2.5
C[C@@H]1CN([C@H](C)CO)S(=O)(=O)c2ccc(-c3ccc(F)cc3)cc2O[C@@H]1CN(C)Cc1ccccc1C(=O)O | -1 | -3 | 1.9
O=C(C[C@H]1CC[C@H]2[C@@H](COC[C@@H](O)CN2Cc2ccccc2F)O1)N[C@@H]1CCN(Cc2ccccc2)C1 | ? | · | ·
Cn1cnc(S(=O)(=O)N2C[C@@H](O)COC[C@H]3O[C@@H](CC(=O)NC4CCC4)CC[C@@H]32)c1 | 2 | -3 | 4.6
CN1C(=O)c2cc(NC(=O)c3cscn3)ccc2OC[C@@H]2O[C@H](CC(=O)NCC3CC3)CC[C@H]21 | -2 | -8 | 5.6
CC(C)NC(=O)N(C)C[C@@H]1Oc2ccc(NS(=O)(=O)c3ccc(Cl)cc3)cc2C(=O)N([C@H](C)CO)C[C@H]1C | -2 | 1 | -2.8
C[C@@H]1CN([C@H](C)CO)C(=O)c2c(c3ccccc3n2C)-c2ccccc2CO[C@@H]1CN(C)C(=O)C1CC1 | 13 | 16 | -3.4
COC(=O)C[C@H]1CC[C@@H]2[C@@H](COc3ccc(NS(=O)(=O)c4ccccc4F)cc3C(=O)N2C)O1 | 7 | 1 | 6.0
C[C@@H]1CCCCO[C@@H](CN(C)C(=O)CCCN(C)C)[C@@H](C)CN([C@H](C)CO)C(=O)c2cc(NS(=O)(=O)c3cn(C)cn3)ccc2O1 | 4 | 5 | -0.7

2 compounds picked at random from those above, as already listed:
SMILES | DUX4 txn inh | DUX4 txn inh difference | DUX4 txn inh control
CCC(=O)N1C[C@@H](C)[C@@H](OC)CN(C)C(=O)c2ccc(NC(=O)CC(F)(F)F)cc2OC[C@H]1C | 14 | 9 | 5.3
CS(=O)(=O)Nc1ccc2c(c1)[C@@H]1C[C@@H](CC(=O)NCc3cc(F)ccc3F)O[C@H](CO)[C@@H]1O2 | 5 | 1 | 4.9
